# HCMV NEC inh: inhibitors of HCMV UL50-UL53 interaction, biochemical, HTRF; HCMV UL50-UL53 nuclear egress complex (human cytomegalovirus); normalized percent inhibition; inhibition, % (no concentration beside the values); 0.15% of 190,000 active; AID 1918969, 2023;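 active = both replicates at 50% or more, plus weaker picks with an unusually low signal ratio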;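 also: stock transfer was 100 nL into about 20 µL; 0% = negative control wells and 100% = wells with untagged competitor protein; inactives centre near -12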
# Sa growth 42C: S. aureus growth inhibition at 42 and 30 °C, primary screen, LtaS inhibitor project, RN4220, two temperatures; OD600, 20 h, 42 °C; stronger effect = lower value; relative growth, % (test concentration not listed); 0.53% of 170,000 active;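 active = growth at 42 °C up to 50% and 20 or more points under that at 30 °C, or under 10% at both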;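 also: 300 nL library stock went into each well; scaled to the means of positive and negative controls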
# GIV-Gai inh: inhibitors of GIV peptide binding to Galpha-i3, primary screen, biochemical, fluorescence polarization, FITC-GIV GBA peptide, rat Galphai3; 0.42% of 210,000 active; 90 min; stronger effect = lower value; scaled: aluminum fluoride 0%, vehicle 100%; percent of control (FP), % (no concentration beside the values); Guanine nucleotide-binding protein G(i) subunit alpha-3 (Rattus norvegicus), P08753;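 active = replicate mean at 85% of control or lower, very high polarization wells dropped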;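 also: wells of about 15 µL received 100 nL stock; the first replicate is given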
# Target sequence (P08753 whole entry, looked up): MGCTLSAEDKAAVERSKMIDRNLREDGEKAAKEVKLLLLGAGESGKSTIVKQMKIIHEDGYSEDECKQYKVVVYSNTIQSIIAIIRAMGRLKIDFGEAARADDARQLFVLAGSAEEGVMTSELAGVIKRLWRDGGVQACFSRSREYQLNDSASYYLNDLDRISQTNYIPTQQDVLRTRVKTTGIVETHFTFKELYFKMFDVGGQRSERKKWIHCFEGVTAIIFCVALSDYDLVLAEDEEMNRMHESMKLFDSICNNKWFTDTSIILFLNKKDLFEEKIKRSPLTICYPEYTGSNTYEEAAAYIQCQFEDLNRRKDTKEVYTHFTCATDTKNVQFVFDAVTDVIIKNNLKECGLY
# Sa growth 42C second temp: second read-out of Sa growth 42C, no call of its own (marks repeat the call); relative growth, %; measured here: growth at 30 °C;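 optical density after 20 h as mean of two plates; 100% = untreated growth and lower means inhibition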
# * hit, by the source's call; x = not tested or not shown; & = joins results of further samples.
# Values in the order: Sa growth 42C second temp	GIV-Gai inh	Sa growth 42C	HCMV NEC inh
CCC(C(=O)N1c2ccccc2Sc2ccc(C(F)(F)F)cc21)N1C(=O)c2ccccc2C1=O (stereo unspecified)
    98	111	103	x
CCOC(=O)c1nc2ccccc2nc1NCCc1ccc(OCC)c(OCC)c1
    x	130	x	-11
CCCCOc1ccc(CNC(=O)CCCN2C(=O)CSc3c2c(C)nn3-c2ccccc2)cc1
    90	103	92	x
CN(C(=O)Nc1ccccc1)C12CC3CC(CC(C3)C1)C2
    93	104	112	-25
COCc1cc(=O)[nH]c(SCC(=O)Nc2cc(C)cc(C)c2)n1
    81	104	96	-20
Cc1c(C(=O)O)oc2ccc(S(=O)(=O)NCCC(C)C)cc12
    84	99	111	x
O=C(Nc1ccccc1)Nc1nc(CC(=O)N2CCc3ccccc3C2)cs1
    x	107	x	-20
N#Cc1ccc(Oc2ccc(Cl)cc2Cl)cc1
    x	104	x	-21
CC1(C)NCCNC1=O
    83	99	105	1
Fc1cccc(Nc2n[nH]c(=S)s2)c1
    79	106	98	-7
FC(F)(F)c1cnc(NNC(=S)NCC2CCCO2)c(Cl)c1 (stereo unspecified)
    95	x	102	-33
Cc1ccc(C)c(NC(=O)N2CCC(N3CCN(Cc4ccc(F)cc4)C(=O)C3=O)CC2)c1
    98	112	97	x
CCOC(=O)C(C#N)C(c1cccnc1)c1[nH]c(C)nc1O (stereo unspecified)
    73	x	109	-16
O=C(CCCn1nnc2cc(S(=O)(=O)N3CCCC3)ccc21)NCc1cccc(Cl)c1
    x	105	x	12
O=C(CCc1nc(-c2ccccn2)no1)NC1CCCCC1
    x	104	x	-18

# Overlap with the part before: 5 compounds, then new ones.
# Values in the order: Sa growth 42C second temp	GIV-Gai inh	Sa growth 42C	HCMV NEC inh
FC(F)(F)c1cnc(NNC(=S)NCC2CCCO2)c(Cl)c1 (stereo unspecified)
    95	x	102	-33
Cc1ccc(C)c(NC(=O)N2CCC(N3CCN(Cc4ccc(F)cc4)C(=O)C3=O)CC2)c1
    98	112	97	x
CCOC(=O)C(C#N)C(c1cccnc1)c1[nH]c(C)nc1O (stereo unspecified)
    73	x	109	-16
O=C(CCCn1nnc2cc(S(=O)(=O)N3CCCC3)ccc21)NCc1cccc(Cl)c1
    x	105	x	12
O=C(CCc1nc(-c2ccccn2)no1)NC1CCCCC1
    x	104	x	-18
O=C(CC1C(=O)N(c2ccccc2)C(=O)N1Cc1ccco1)Nc1ccccc1 (stereo unspecified)
    87	107	98	-11
OCc1cnc(SCc2ccc(F)cc2)n1Cc1ccc(F)cc1
    95	100	103	x
N#Cc1ccc(NC(=O)COCc2cc(-c3ccco3)on2)cc1
    98	104	110	x
O=C(Nc1nc2c(Br)cc(Br)cc2c(=O)s1)C1CCC1
    45	100	86	-4
CC1CCCCN1C(=O)C1COc2ccccc2O1 (stereo unspecified)
    84	101	99	0
O=S(=O)(NCc1ccncc1)c1ccc(C2CCCCC2)cc1
    79	101	107	-2
O=c1c(-c2ccccc2)c(O)nc2sc3ccccc3n12
    71	97	149	0
CC1CCCCN1C(=O)c1cc(-c2cccnc2)on1 (stereo unspecified)
    x	100	x	-1
Cc1cccc(CN2CC=C(C(=O)Nc3ccc(Cl)cc3)CC2)c1
    x	104	x	-8
COc1ccc(CN2CCN(S(=O)(=O)c3ccc(NC(C)=O)cc3)CC2)c(OC)c1OC
    85	103	105	14
Cc1c(C(=O)N2CCC(c3nc4ccccc4s3)CC2)oc2cc(Br)ccc12
    89	103	103	5
COc1ccc(-c2nc3ccccc3c(=O)n2NCc2ccc(Br)s2)cc1OC
    x	106	x	-18
C=CCN=C(SC)N1CCN(C(=NCC=C)SC)CC1
    90	x	66	-1
CCN1CCN(C(C)C(=O)NCc2ccc(OC)cc2)CC1 (stereo unspecified)
    89	101	94	-10
O=C(CCCn1nc(-c2ccccc2)c2cc(Cl)ccc21)NCc1cccnc1
    x	94	x	2

# Values in the order: Sa growth 42C second temp	GIV-Gai inh	Sa growth 42C	HCMV NEC inh
CC(OC(=O)Cc1ccsc1)C(=O)Nc1ccc(C(N)=O)cc1 (stereo unspecified)
    95	x	102	1
Cc1ccc(Cn2c(=N)n(CC(=O)c3ccccc3)c3ccccc32)cc1
    -1	101	40	-9
Cn1c(/N=C(\C#N)c2nc3ccccc3[nH]2)c(N)c(=O)n(C)c1=O
    97	x	119	0
CCC(C(=O)OC)n1nnc2sc(-c3ccccc3)cc2c1=O (stereo unspecified)
    86	111	103	-36
COCc1[nH]nc2c1C(c1ccccc1C(F)(F)F)C(C#N)=C(N)O2 (stereo unspecified)
    75	104	97	-8
CC(=O)c1ccc(NC(=O)CN2C(=O)CCc3ccccc32)cc1
    90	105	140	x
CCC(=O)N1CCc2cc(S(=O)(=O)CCC(=O)NCc3ccccc3)ccc21
    97	103	121	2
CCn1c(=O)n(CC2CCC(C(=O)NC(C)C)CC2)c(=O)c2sccc21 (stereo unspecified)
    91	96	95	x
C#CCn1c(=NC(=O)c2ccc(N3C(=O)CCC3=O)cc2)sc2cc(Br)ccc21
    74	110	97	-20
Cc1c(Cl)cccc1NC(=O)Nc1nnc(N2CCCCCC2)s1
    105	103	124	-15
COc1ccc(CCN2C(=O)c3oc4cc(C)cc(C)c4c(=O)c3C2c2ccccc2F)cc1OC (stereo unspecified)
    92	97	94	-4
O=C1CC(C(=O)NCc2ccc(F)cc2)C2=C(CCCC2=O)N1 (stereo unspecified)
    82	98	95	x
O=C1C2CCCCC2=NN1c1ccccc1 (stereo unspecified)
    82	104	79	x
CCOCCOC(=O)C1=C(C)NC2=C(C(=O)CC(c3ccccc3)C2)C1c1ccc(OC)c(OC)c1 (stereo unspecified)
    x	103	x	-15
COc1ccc(NC(=O)N=S2CCN(S(=O)(=O)c3ccc(Cl)cc3)CC2)cc1
    81	102	92	-26

# Values in the order: Sa growth 42C second temp	GIV-Gai inh	Sa growth 42C	HCMV NEC inh
CSc1sc2ccccc2[n+]1C
    86	x	71	9
Cc1ccc(-n2c(=O)c3sccc3n(CC(=O)NCC3CCCO3)c2=O)cc1F (stereo unspecified)
    82	102	91	x
O=C(COC(=O)c1cnc(Cl)c(Cl)c1)NC1CC1
    89	x	94	-20
COc1ccc(/C=C/C(=O)CC(=O)c2ccccc2O)cc1
    76	117	104	x
CN(C)Cc1nc2ccccc2c(=O)n1CC#N
    98	x	100	-5
COc1ccccc1NC(=O)c1ccccc1C(=O)O
    94	108	98	-40
Cc1cccc(NC(=O)Cn2c(O)c(N=N)c3ccccc32)c1
    74	107	105	x
CN(C)/C=N/C(=S)NC1CC2C=CC1C2 (stereo unspecified)
    85	103	87	-16
N#CC1=C(N)OC2=C(CC/C2=C/c2ccccc2)C1c1ccccc1 (stereo unspecified)
    72	-57*	82	-42
O=C1C2=C(C(c3ccccc3)=NCCN2)C(c2ccc(F)cc2)N1c1ccccc1 (stereo unspecified)
    x	109&99	x	-22
COC(=O)c1ccccc1NC(=O)Cn1c(SC)c(F)cnc1=O
    105	102	102	-6
Cc1cc(=O)[nH]c2nnc(SCC(=O)Nc3ccc(F)cc3F)n12
    92	97	131	x
Cn1nc(C(=O)NCCSc2n[nH]c(=O)[nH]c2=O)c2ccccc2c1=O
    90	x	96	-32
COC(=O)c1cc(S(=O)(=O)N2CCCC2C(=O)Nc2ccc(F)cc2Cl)cn1C (stereo unspecified)
    x	101	x	-12
C=Cc1ccc(CN2C(=O)N(c3ccc(CC)cc3)S(=O)(=O)c3ccccc32)cc1
    111	109	96	x

# Values in the order: Sa growth 42C second temp	GIV-Gai inh	Sa growth 42C	HCMV NEC inh
COc1ccc(N2CCN(C(=O)C3CCN(S(=O)(=O)c4cnc[nH]4)CC3)CC2)cc1
    104	104	84	-6
CC(Nc1ccccc1)C(=O)Nc1ccc(F)cc1 (stereo unspecified)
    76	x	94	-25
O=S(=O)(c1ccc(-c2cnco2)cc1)N(Cc1ccccn1)Cc1ccccn1
    76	106	98	-32
N#Cc1nc(/C=C/c2ccc(F)cc2)oc1N1CCCCC1
    92	108	85	-9
Cc1noc(/C=C/N(C)C)c1S(=O)(=O)N1CCc2ccccc21
    94	113	139	x
COc1cccc(-c2nc(CS(=O)(=O)CC(=O)N3CCN(c4ccccn4)CC3)c(C)o2)c1
    x	102	x	-32
CCOc1ccccc1NS(=O)(=O)c1c(C(=O)OC)sc2cccc(F)c12
    94	98	100	x
CCOC(=O)CSc1nc2ccccc2n1C(=O)Nc1cccc(Cl)c1
    67	x	53	0
CCOC(=O)c1ccc(CSc2nc3c(c(=O)[nH]2)CCCC3)cc1
    x	100	x	-7
Cc1nc2nc3c(c(Nc4ccc(F)c(F)c4)n2n1)CCCC3
    x	106	x	-14
CC(C)NCc1ccc(-c2ccc(Br)cc2)o1
    x	103	x	-44
Cc1ccc(NC(=O)CCc2c(C)nc3c4c(C)cc(C)nc4nn3c2C)cc1
    88	103	111	x
CCOc1cc(C2C(C(=O)OCc3ccc(OC)cc3)=C(C)NC3=C2C(=O)CCC3)cc(Br)c1O (stereo unspecified)
    x	104	x	-14
CCN(Cc1ccccc1)C(=O)CS(=O)(=O)c1ccccc1
    104	104	106	3
CCOc1ccc(NC(=O)CSc2nnc(CC)c(CC)n2)cc1
    86	103	89	x

# Values in the order: Sa growth 42C second temp	GIV-Gai inh	Sa growth 42C	HCMV NEC inh
Cc1ccc(-c2nnc(NC(=O)c3ccc(S(=O)(=O)N4CCCCC4)cc3)s2)cc1
    x	105	x	8
C=CCN1C(=O)CSc2ccc(C(=O)OCC)cc21
    95	105	85	2
CC(C)Oc1ccc(C(=O)Nc2ccc3c(c2)N(S(=O)(=O)c2ccccc2)CCC3)cc1
    x	109	x	-27
Cc1nc2nncn2c(NCCC(C)C)c1C
    89	107	103	-10
CCOC(=O)c1ccc(N2C(=O)c3n[nH]c(C)c3C2c2ccc(CC)cc2)cc1 (stereo unspecified)
    89	106	109	-23
COc1ccccc1CNc1nccn(-c2ccc(F)cc2)c1=O
    82	106	97	x
CCOC(=O)c1cc(-c2ccccc2)n(-c2cccc(C(=O)Nc3ccc(OCC)cc3)c2)c1C
    100	97	91	x
COC(=O)c1sc(S(C)(=O)=O)c(C#N)c1-c1cc(C(C)(C)C)oc1C
    88	105	110	2
Cc1ccc2oc(C(=O)N(Cc3ccc(N(C)C)cc3)CC3CCCO3)c(C)c2c1 (stereo unspecified)
    97	105&106	105	-3&-14
C=C1N(Cc2ccccc2)C(=O)OC1(C)C
    88	x	86	-5
NN(CCO)C(=S)NCc1ccc(Cl)cc1
    98	97	112	11
Cc1cc(C)cc(NS(=O)(=O)c2ccc3[nH]cc(C(=O)N4CCCCCC4)c(=O)c3c2)c1
    87	104	116	-18
CCC(=O)Nc1cc2nc3[nH]c(=O)n(CCc4ccccc4)c(=O)c3nc2cc1C
    86	103	107	-22
O=C(Nc1ccc(N2CCOCC2)cc1)c1ccccc1
    74	101	105	-9
CN(CC(=O)NCCc1ccc(Cl)cc1)S(=O)(=O)c1ccc2c(c1)C(=O)NCC(=O)N2
    x	105	x	-6

# Values in the order: Sa growth 42C second temp	GIV-Gai inh	Sa growth 42C	HCMV NEC inh
COc1ccc(CCN2C(=O)CC(C(=O)Nc3ccccc3)SC2=Nc2ccccc2)cc1OC (stereo unspecified)
    x	103	x	-23
Cc1ccc(NC(=O)N2CCCN(c3ccc(=O)n(-c4ccc(F)cc4)n3)CC2)cc1
    x	105	x	-54
COc1ccc(C2N(C(C)=O)CCCN2S(=O)(=O)c2ccc(C)cc2)cc1 (stereo unspecified)
    102	101	102	-1
Cc1nc2c(c(C)c1CCC(=O)N1CCN(c3ccccc3)CC1)c(=O)n(C)c(=O)n2C
    99	110	92	-11
CCOC(=O)Cc1csc(NC(=O)Cc2ccccc2)n1
    77	103	91	-17
O=C(NCc1nc(-c2ccc(C(F)(F)F)cc2)no1)Nc1ccc(F)cc1F
    89	98	99	-4
Cc1sc2nc[nH]c(=S)c2c1-c1ccccc1
    0.5*	x	-0.5*	-20
Cc1cc(C)c2c(n1)SCCN2C(=O)Nc1cccc(Cl)c1C
    x	106	x	-8
Cc1c(C(=O)N2CCCC2)oc2c1-c1nn(CC(=O)NCc3ccccc3Br)cc1CC2
    80	108	103	x
Cc1cc(C)n(-c2nc3ccccc3nc2Nc2ccc(F)cc2)n1
    x	102	x	-18
O=c1cc(-c2ccccc2)c2cc(Cl)c3c(c2o1)CN(Cc1ccccc1)CO3
    85	100	113	-116
O=C1N/C(=N\c2ccccn2)SC1Cc1ccc(Br)cc1 (stereo unspecified)
    x	104	x	-1
CCOC(=O)c1c(C)oc2nc(C)nc(NCc3cccc(Cl)c3)c12
    88	106	97	x
COC(=O)c1nnc2c(-c3ccc(OC)cc3)c(C)nn2c1C
    x	97	x	-166
CNS(=O)(=O)c1ccc(Cl)cc1
    93	x	78	-24
CC(=O)N1CCc2c(sc3c2c(=O)n(-c2ccccc2)c(=O)n3CC(=O)Nc2ccccc2)C1
    84	101&97	93	x
O=C(O)c1ccc(-c2nc3ccccc3s2)cc1
    49	108	86	-39
CNC(=O)c1nn(-c2ccccc2)nc1CO
    97	104&113	109	11&2

# Shown with tabs: entries from further up
Compound	Sa growth 42C second temp	GIV-Gai inh	Sa growth 42C	HCMV NEC inh
O=C(Nc1nc2c(Br)cc(Br)cc2c(=O)s1)C1CCC1	45	100	86	-4
CC1CCCCN1C(=O)C1COc2ccccc2O1 (stereo unspecified)	84	101	99	0

# Assay outcomes (PubChem BioAssay)
